# Sfp inh: Sfp phosphopantetheinyl transferase inhibition. Biochemical Sfp PPTase activity, qHTS. Potency, µM, without a hit: max response, negative = inhibition, actives largely listed as inhibitors. Q9F4F7. 3.5% of 310,000 active; active means well fitted inhibition curve with a large enough effect; inconclusive means small, poorly fitted or top-dose-only effect, or another doubt; inactive means no such curve, though single readings can be large or run the other way;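 further: the enzyme is Sfp with the accession as filed and its product quenches rhodamine fluorescence; potency means the concentration at half of the fitted maximal effect; 0% = enzyme reaction without inhibitor and -100% = no enzyme wells; top concentration of the series not given in the record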
#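 After 15 min at room temperature with compound, 15 nM Sfp received 5 uM rhodamine-CoA plus 12.5 uM BHQ-2-ybbR (50 mM Hepes pH 7.6, 10 mM MgCl2). Rate came from the fluorescence difference over 30 min, ex 525/em 598 nm.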
# CtBP-E1A inh: blocks the CtBP interaction with E1A | AID 651724 | activity change, % (test concentration not listed) | AlphaScreen GST-E1A/His-CtBP binding, 1536-well; hits give low values; control for the full effect not named in the record | 0.49% of 340,000 active; in the data active means activity change below about -65%; inconclusive means about -30% to -65%; inactive means above about -30%; further: on the % scale 0 is the no-effect control and ±100 the full control effect; compound concentration not given in the record
#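 In 5 uL wells, 23 nL compound meets equimolar GST-E1A and His-CtBP (5X stock 125 nM each) for 2 h, 37 °C. Beads (5X, 50 ug/mL) then 1 h, 37 °C, dark.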
# Six1-Eya2 blk: blocks human Six1 binding to Eya2; Q15475+O00167; AlphaScreen GST-Six1/His-Eya2 binding, biochemical; hits give low values; control for the full effect not named in the record; activity change, % (test concentration not listed); 0.56% of 360,000 active; AID 651725; in the data active = activity change below about -65%; inconclusive = about -30% to -65%; inactive = above about -30%; further: on the % scale 0 is the no-effect control and ±100 the full control effect; compound concentration not given in the record
# Target sequence (O00167 whole entry, looked up): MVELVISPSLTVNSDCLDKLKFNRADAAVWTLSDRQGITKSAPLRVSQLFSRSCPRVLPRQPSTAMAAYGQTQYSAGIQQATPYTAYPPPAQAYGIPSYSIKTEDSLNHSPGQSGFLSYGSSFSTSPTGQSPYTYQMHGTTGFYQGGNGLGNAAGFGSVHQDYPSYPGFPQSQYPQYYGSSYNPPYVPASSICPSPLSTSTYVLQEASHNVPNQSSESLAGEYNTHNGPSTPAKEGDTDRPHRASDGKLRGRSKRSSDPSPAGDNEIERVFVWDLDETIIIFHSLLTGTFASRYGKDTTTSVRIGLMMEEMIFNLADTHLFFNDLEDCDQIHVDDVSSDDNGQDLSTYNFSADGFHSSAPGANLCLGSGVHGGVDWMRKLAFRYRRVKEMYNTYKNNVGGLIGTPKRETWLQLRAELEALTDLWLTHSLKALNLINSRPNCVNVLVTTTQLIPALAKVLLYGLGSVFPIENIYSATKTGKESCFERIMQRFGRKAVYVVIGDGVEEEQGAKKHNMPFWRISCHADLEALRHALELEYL
# Target sequence (Q15475 whole entry, looked up): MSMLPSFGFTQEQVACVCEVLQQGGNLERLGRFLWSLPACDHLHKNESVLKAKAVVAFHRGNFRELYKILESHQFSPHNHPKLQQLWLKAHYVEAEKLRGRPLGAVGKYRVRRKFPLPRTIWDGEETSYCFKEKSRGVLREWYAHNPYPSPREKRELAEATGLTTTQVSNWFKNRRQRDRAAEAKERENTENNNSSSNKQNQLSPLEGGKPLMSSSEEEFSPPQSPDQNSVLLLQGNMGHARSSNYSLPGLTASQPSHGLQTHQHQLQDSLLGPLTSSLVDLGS
#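 AlphaScreen with GST-Six1 and His-Eya2 (5X mix: 250 nM and 500 nM), glutathione donor and nickel acceptor beads; buffer 50 mM Tris pH 8.0, 300 mM NaCl, 1 mM TCEP; 1 h at 37 C in the dark.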
# D2 agonist: agonists of human D2 dopamine receptor (beta-arrestin). DiscoveRx PathHunter D2 beta-arrestin, luminescence, 90 min; 100% = 57 uM dopamine signal. activation, % (concentration not given with the values). 0.084% of 360,000 active; in the data active = activation above about 40%; inconclusive = about 15% to 40%; inactive = below about 15%; further: compound concentration not given in the record; the text of the record calls up to 30% inactive
#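 Agonist mode: compounds alone added to overnight-plated D2 PathHunter cells for 90 min at 37 C, with 57 uM final dopamine (EC100) defining full response. Beta-arrestin recruitment detected by chemiluminescent reagent, read after 1 h at ambient temperature.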
# TRPV1 potentiator: potentiators of human vanilloid receptor 1 (TRPV1). potentiation, % at 8.33 µM. 0.02% of 320,000 active. TRPV1-expressing cells, Fluo-8 calcium influx, capsaicin EC20 potentiation; host cell line not named in the record; control for the full effect not named in the record. Q8NER1; active means potentiation above 80%; inconclusive means 30% to 80%; inactive means below 30%; further: 0% is about no effect
#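 Cells expressing TRPV1 were dye-loaded with Fluo-8 and read kinetically: 10 s baseline, 3 min after compound (agonist portion), then 2 min after EC20 capsaicin (allosteric enhancer portion). Calcium-bound dye fluorescence at 480/520 nm.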
# PINK1 expr mod: modulators of PINK1 expression | PINK1 immunofluorescence, high-content cytometry, 24 h | Potency, µM (top dose mostly 76.6 µM), inactives show at the top dose activation (PINK1 increase), usual class: activators | 0.2% of 410,000 active | AID 624263; active = well fitted activation curve with a large enough effect; inconclusive = small, poorly fitted or top-dose-only effect; inactive = flat fitted curve, though single readings scatter; cell line not stated here;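 further: potency means the concentration at half of the fitted maximal effect; % of control where 0% means no effect; nearly all actives have a fitted effect of over 65% in size; a mitochondrial uncoupler was the plate control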
#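 Stable cell line, 250 cells/well, 12 h attachment; compounds pinned at 5 concentrations, 24 h; CCCP control. Fixed with nuclear dye, primary antibodies 12 h at 10 degrees C, secondary plus cell stain; laser-scanning cytometer read.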
# D2 PAM: positive allosteric modulators of human D2 dopamine receptor. P14416. DiscoveRx D2 beta-arrestin cells, luminescence, 90 min; 100% = 57 uM dopamine signal. potentiation, % (test concentration not listed). 0.23% of 360,000 active. AID 624464; active = potentiation of 50% or more; inconclusive = 30% to 50%; inactive = 30% or less;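 further: compound concentration not given in the record; tested on top of an EC20 dose of dopamine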
#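 PathHunter D2 cells, attached overnight at 37 deg C, received compound in DMSO plus dopamine at EC20 (50 nM final) for 90 min at 37 deg C. Beta-arrestin recruitment was read as luminescence after 1 h with detection reagent at ambient temperature.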
# Numbers without * were called inactive; ? = inconclusive; . = no result given; & = joins results of further samples; [ ] = dose if it differs, or a comment.
# Start of the data: the first 3 compounds as a preview:
SMILES,Sfp inh,CtBP-E1A inh,Six1-Eya2 blk,D2 agonist,TRPV1 potentiator,PINK1 expr mod,D2 PAM
CCC(=NCCOc1ccc(Cl)cc1)c1c(O)n(C)c(=O)n(C)c1=O,-7%,2,-8,-0.5,10,-0.2%,-4
COc1ccc(CNCCc2c[nH]c3ccccc23)c(OC)c1C,-27%,7,8,-2.3,10,-4.0%,-12
CCC1(CC)C(=O)NC(=NCCc2c[nH]c3ccccc23)NC1=O,11%,-8,-1,-3.4,4,12%[38.3 µM],-8

# This part in full, from the first entry:
SMILES,Sfp inh,CtBP-E1A inh,Six1-Eya2 blk,D2 agonist,TRPV1 potentiator,PINK1 expr mod,D2 PAM
CCC(=NCCOc1ccc(Cl)cc1)c1c(O)n(C)c(=O)n(C)c1=O,-7%,2,-8,-0.5,10,-0.2%,-4
COc1ccc(CNCCc2c[nH]c3ccccc23)c(OC)c1C,-27%,7,8,-2.3,10,-4.0%,-12
CCC1(CC)C(=O)NC(=NCCc2c[nH]c3ccccc23)NC1=O,11%,-8,-1,-3.4,4,12%[38.3 µM],-8
NC(Cc1ccc(Cl)cc1)c1csc(Nc2ccccn2)n1 (configuration not stated),.,-68*,?,-3.8,.,-1.2%,-8
Cc1cc(Oc2cc(NN3CCCCC3)c([N+](=O)[O-])cc2[N+](=O)[O-])ccc1[N+](=O)[O-],6%,-22,-29,0.7,13,-1.3%,-7
CC(=O)N1CC(=O)Nc2ccc(F)cc2C1c1ccccc1 (configuration not stated),7%,2,-10,-5.9,8,1.9%&0.5%,.
O=C(c1cccs1)C1CN2CCC1CC2 (configuration not stated),10%,-1,-3,-0.9,?,-0.4%,-41
CCc1ccc(CN2CCN(C(=O)Cc3ccccc3)CC2)cc1,?,2,0,-3.7,2,1.8%,-15
Cc1ccc2c(c1)C1CN(C)CCC1N2C(=O)Nc1cccc(C(F)(F)F)c1 (configuration not stated),-1%,-4,0,-3.0,22,5.5%,-26
CCOC(=O)C1(CCc2ccccc2)CCN(Cc2cccc3cnccc23)CC1,-5%,-9,-9,0.1,-6,?,-10
Cc1ccccc1-n1c(C)nc2ccsc2c1=O,.,-7,6,-4.3,.,-1.3%,-4
CC12C=CC(=O)C=C1CC(O)C1C2CCC2(C)C1CCC2(C)O (configuration not stated),.,6,2,1.2,.,-0.4%,-4
O=C(c1cc2c(s1)CCCCCC2)N1CCC2(CC1)OCCO2,7%,3,2,1.5,-11,-0.2%[38.3 µM],-11
O=C(C[n+]1ccn(CCCNP2(=O)C=C(c3ccccc3)OC(c3ccccc3)=C2)c1)c1ccccc1,-14%,-22,0,-5.9,8,1.5%,-7
CCOC(=O)c1sc(/N=C/c2c(O)n(-c3ccccc3)c(=O)[nH]c2=O)c(C#N)c1C,50µM*,-2,-9,-2.5,5,-1.0%,6
O=C(CCl)Nc1nccs1,-5%,-1,6,-1.8,-3,0.0%,-8
Cc1cc(C)cc(NC(=O)CCNC(=O)N2C[C@H]3C[C@@H](C2)c2cccc(=O)n2C3)c1,13%,9,2,-4.4,24,-1.1%,-20
CC(=O)c1ccc(-c2ccccc2)cc1,14%,.,25,-8.5,-2,4.3%,-8
C=C(CO)CC1CC(O)[C@]2(C)OC3CC4OC5C[C@]6(C)O[C@]7(C)CCC8OC9C[C@]%10(C)OC%11C(C)=CC(=O)OC%11CC%10OC9C[C@@H](C)C8OC7CC6O[C@]5(C)C/C=C\C4OC3CC2O1 (some centres not stated),3%,8,8,-2.0,15,1.7%,0
O=c1[nH]c(=O)n(Cc2ccco2)c(O)c1/C=N/N1CCCCCC1,-19%,-15,-11,-5.8,-26,0.4%,-3
CC(NC1CCCCC1)C(O)C12CC3CC(CC(C3)C1)C2 (configuration not stated),9%,-7,0,-1.5,4,3.2%[38.3 µM],-14
COc1ccc(-n2c(/C=C/c3ccc(O)c(OC)c3)nc3ccccc3c2=O)cc1,1%,.,-2,?,16,3.1%,?
CCCCn1nnnc1C(c1cccc2ccccc12)N1CCC2(CC1)C(=O)NCN2c1ccccc1 (configuration not stated),.,0,-6,-3.1,.,-0.6%,-14
O=C(Nc1ccc(C(F)(F)F)cc1)c1cccn(Cc2ccc3c(c2)OC(F)(F)O3)c1=O,21%,-2,2,-2.4,.,1.9%,-15
Cc1cccc(CN2CCN(C(=O)Cc3ccccc3)CC2)c1,-16%,3,1,6.8,-11,1.4%,-12

# More results follow.
SMILES,Sfp inh,CtBP-E1A inh,Six1-Eya2 blk,D2 agonist,TRPV1 potentiator,PINK1 expr mod,D2 PAM
O=P(Nc1ccccc1)(Nc1ccccc1)Oc1cccc(Cl)c1,-1%,0,-1,-1.3,24,-3.3%[38.3 µM],-3
O=C(O)Cn1cc(C(=O)c2ccccc2)c2ccccc21,12%,17,0,-1.0,2,0.2%[38.3 µM],-4
CCCNc1oc(-c2cccc3ccccc23)nc1C#N,-4%,11,5,-1.1,-8,3.3%[38.3 µM],-5
CCCN(CC1CC1)CC(O)c1ccccc1 (configuration not stated),-19%,7,-5,-2.9,-22,-0.6%,-7
O=C1NC(=O)N(Cc2ccccc2)C(=O)/C1=C\N1CCCc2ccccc21,?,?,-28,7.8,-4,-1.2%,4
O=C(Cc1ccccc1)N1CCN(C2CCCCCC2)CC1,-9%,0,1,0.6,-2,-1.7%,-11
O=C(Nc1cccc2ccccc12)N1CCC2(CC1)OCCO2,0%,.,3,6.0,-3,-0.9%,2
Cc1cc(C=C(C#N)C#N)ccc1N1CCCC1,0%,2,21,-6.0,0,1.7%,-12
CCN(CC)c1ccc(C=C2C(=O)NC(=S)NC2=O)cc1,3.2µM*,.,4,-1.5,20,-0.1%,-8
CC1CC2(O)c3no[n+]([O-])c3CCC2N1O (configuration not stated),17%,2,5,0.6,9,2.6%[38.3 µM],9
CCN1CCN(S(=O)(=O)c2ccc(Cl)c(C(=O)Nc3ccc(C(=O)N(CC)CC)cc3)c2)CC1,1%,9,11,0.7,11,-1.3%,-2
CC(C)(O)/C=C/C(=O)[C@](C)(O)C1[C@H](O)C[C@@]2(C)C3CC=C4C(C[C@H](O)[C@@H](O)C4(C)C)[C@]3(C)C(=O)C[C@]12C (some centres not stated),.,0,1,0.7,.,?,0
O=C1NC(=O)C(=Cc2cccc(OCCOc3ccccc3)c2)C(=O)N1,45µM*,2,-5,0.5,26,0.2%,-5
CCN(CC)CCCN=C(C)c1c(O)n(C2CCCCC2)c(=O)[nH]c1=O,-6%,2,3,-1.1,-8,?,2
COC(=O)C1=C(c2ccccc2OCc2ccccc2)C[C@@H]2CC[C@H]1N2C(=O)NCc1ccc(N(C)C)cc1,.,?,?,-1.4,-7,1.6%,-8
OC1(c2ccc(F)cc2)CC2CCC(C1)N2Cc1nnnn1C1CCCCC1 (configuration not stated),20%,-8,0,0.5,-13,4.9%[38.3 µM],9
COC(=O)C1=C(c2ccc(S(C)(=O)=O)cc2)C[C@@H]2CC[C@H]1N2C(=O)NC1CC1,.,5,4,-3.6,.,0.0%,-6
O=[N+]([O-])c1ccc(N2CCCC2)c2ccncc12,-16%,.,-17,0.5,1,-1.2%,12
CC1Oc2cc3c(-c4c(O)cc(O)c5c(O)c6c(cc45)OC(C)C(C)C6=O)c(O)cc(O)c3c(O)c2C(=O)C1C (configuration not stated),15%,-18,-26,-9.7,-4,?,-58
C(#CCN1CCOCC1)COCC#Cc1ccccc1,15%,4,1,-1.3,-1,-0.6%[38.3 µM],-13
O=C1NC(=O)C(CCc2ccncc2)(Cc2ccc(OCc3ccccc3)cc2)C(=O)N1,23%,-2,0,-6.5,-6,2.0%,-11
ClC1=C(Cl)C2(Cl)C3C(Cl)C=CC3C1(Cl)C2(Cl)Cl (configuration not stated),-7%,5,-4,2.8,3,12%&15%,3
CCOc1cc(CNCCc2cccc(F)c2)ccc1OC,-9%,-1,0,1.7,5,-0.1%,-19

# 5 entries already listed, arranged by heavy-atom count, descending.
SMILES,Sfp inh,CtBP-E1A inh,Six1-Eya2 blk,D2 agonist,TRPV1 potentiator,PINK1 expr mod,D2 PAM
O=C(C[n+]1ccn(CCCNP2(=O)C=C(c3ccccc3)OC(c3ccccc3)=C2)c1)c1ccccc1,-14%,-22,0,-5.9,8,1.5%,-7
CCN(CC)CCCN=C(C)c1c(O)n(C2CCCCC2)c(=O)[nH]c1=O,-6%,2,3,-1.1,-8,?,2
O=P(Nc1ccccc1)(Nc1ccccc1)Oc1cccc(Cl)c1,-1%,0,-1,-1.3,24,-3.3%[38.3 µM],-3
Cc1cccc(CN2CCN(C(=O)Cc3ccccc3)CC2)c1,-16%,3,1,6.8,-11,1.4%,-12
O=C(O)Cn1cc(C(=O)c2ccccc2)c2ccccc21,12%,17,0,-1.0,2,0.2%[38.3 µM],-4

# Complete entries, quoted from the list. Order of screens: Sfp inh	CtBP-E1A inh	Six1-Eya2 blk	D2 agonist	TRPV1 potentiator	PINK1 expr mod	D2 PAM
# O=C(Cc1ccccc1)N1CCN(C2CCCCCC2)CC1 as listed: -9%	0	1	0.6	-2	-1.7%	-11
# O=C(CCl)Nc1nccs1 as listed: -5%	-1	6	-1.8	-3	0.0%	-8
# CC(C)(O)/C=C/C(=O)[C@](C)(O)C1[C@H](O)C[C@@]2(C)C3CC=C4C(C[C@H](O)[C@@H](O)C4(C)C)[C@]3(C)C(=O)C[C@]12C (some centres not stated) as listed: .	0	1	0.7	.	?	0

# Some values from the list:
# Entry of ClC1=C(Cl)C2(Cl)C3C(Cl)C=CC3C1(Cl)C2(Cl)Cl (configuration not stated) under CtBP-E1A inh: 5
# Entry of CC1Oc2cc3c(-c4c(O)cc(O)c5c(O)c6c(cc45)OC(C)C(C)C6=O)c(O)cc(O)c3c(O)c2C(=O)C1C (configuration not stated) under D2 PAM: -58

# Bioassay records: PubChem, National Center for Advancing Translational Sciences (NCATS)

# An excerpt (hit frequency here may not be typical).
